KCNQ2 inh: KCNQ2 potassium channel inhibitors, primary screen, cell-based, CHO-K1, FluxOR thallium flux, B-score (AID 2156); Potassium voltage-gated channel subfamily KQT member 2 (Rattus norvegicus), O88943; 20 min; stronger effect = lower value; only compounds with negative scores are shown here; some inactives read as strong as hits; B-score at 10 µM; 310,000 tested, 1.1% active;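 active = fluorescence ratio B-score at most minus 3 library SDs, with starting brightness B-score within 2 library SDs, cut at about -5.5 in these data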
Target sequence (O88943 whole entry, looked up): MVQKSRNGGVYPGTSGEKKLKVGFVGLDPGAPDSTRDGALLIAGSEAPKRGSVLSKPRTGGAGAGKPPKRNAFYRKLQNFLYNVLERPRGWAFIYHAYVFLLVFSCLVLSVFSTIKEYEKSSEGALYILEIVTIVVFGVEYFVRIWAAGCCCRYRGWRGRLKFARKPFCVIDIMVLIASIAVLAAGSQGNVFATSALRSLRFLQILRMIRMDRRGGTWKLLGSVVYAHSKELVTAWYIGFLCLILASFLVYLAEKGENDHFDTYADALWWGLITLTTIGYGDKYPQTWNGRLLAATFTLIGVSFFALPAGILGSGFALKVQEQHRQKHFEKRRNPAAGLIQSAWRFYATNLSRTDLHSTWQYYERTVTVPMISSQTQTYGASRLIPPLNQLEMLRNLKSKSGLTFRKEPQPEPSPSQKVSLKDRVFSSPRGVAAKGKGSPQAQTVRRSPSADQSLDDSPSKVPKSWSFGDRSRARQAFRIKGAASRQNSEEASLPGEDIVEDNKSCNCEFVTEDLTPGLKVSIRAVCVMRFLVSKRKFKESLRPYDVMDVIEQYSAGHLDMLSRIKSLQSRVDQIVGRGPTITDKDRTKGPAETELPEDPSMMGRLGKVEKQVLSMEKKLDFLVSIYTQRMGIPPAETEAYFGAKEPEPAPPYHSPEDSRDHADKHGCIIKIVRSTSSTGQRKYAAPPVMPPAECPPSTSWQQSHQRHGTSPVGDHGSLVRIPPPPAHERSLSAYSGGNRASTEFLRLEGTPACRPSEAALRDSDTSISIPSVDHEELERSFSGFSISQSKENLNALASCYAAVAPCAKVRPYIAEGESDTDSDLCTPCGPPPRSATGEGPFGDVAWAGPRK
KCNQ2 inh baseline: second read-out of KCNQ2 inh, no call of its own (marks repeat the call); B-score; measured here: initial fluorescence intensity artifact check;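 brightness before thallium and not channel activity; 0 = typical well and far values either way flag optical interference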
Starred values were filed as active, the others as inactive; i = inactive; & = joins results of further samples. A portion of the library; the hit share may differ from the screen's.

SMILES | KCNQ2 inh | KCNQ2 inh baseline
COCCn1c(=NC(=O)CCS(=O)(=O)c2ccccc2)sc2cc(C(=O)OC)ccc21 | i | -0.01
COc1cccc(NC(=O)CSc2nnc(CN3CCOCC3)n2C)c1 | i | 1.5
CCN(CC)c1nc2c(c(=O)n(C)c(=O)n2C)n1CCCc1ccccc1 | i | 1.1
O=C(NC(=O)c1ccccc1)OCC1CCCN2CCCCC12 (configuration not stated) | i | -1.74
CN(C)CC1(c2ccccc2)CCCC1 | i | -0.52
COc1ccc(NC(=O)c2nc[nH]c2C(=O)Nc2ccccc2C)cc1 | i | 0.06
COc1cc(C(=O)NCCc2c[nH]c3ccccc23)ccc1OCc1c(C)noc1C | i | -1.05
CCOC(=O)N1CCN(c2nc3ccccc3nc2C(C#N)C(=O)NCCc2ccccc2)CC1 (configuration not stated) | -8.65* | 0.78*
COc1ccnc(-n2cccc2/C=N/O)c1C#N | i | -0.9
CC(=O)c1ccc2noc(-c3ccc(Cl)cc3)c2c1 | i | 0.57
S=C(Nc1ccc(Cl)c(Cl)c1)NN1CCOCC1 | i | -0.91
Cc1ccc(-c2nc(P(=O)(c3ccccc3)c3ccccc3)c(N3CCOCC3)o2)cc1 | i | 0.07
Cc1ccccc1-n1ncc2c1CC(C)(C)CC2NC(=O)c1ccncc1 (configuration not stated) | i | 1.24
Cc1noc(C)c1S(=O)(=O)N(CC(=O)NCCc1ccccc1)c1ccc(C(C)C)cc1 | i | 0.76
COc1ccc2[nH]c(C(=O)NCCc3ccccc3)cc2c1 | i | -0.78
COc1cccc(NC(=O)c2c(C)nn(-c3ccccc3)c2Cl)c1 | i | 0.07
CCCCn1nc(NC(=O)c2cccs2)c2cc3cc(OC)ccc3nc21 | i | 1.28
Cc1cccc(NC(=O)CCc2c(C)nn(-c3ccc(N4CCCCC4)nn3)c2C)c1 | i | -2
CC(=O)c1c(C)oc(C)c1CSCc1ccc(C(=O)O)o1 | i | 0.04
CCOc1nc(Nc2ccc(OC)c(Cl)c2)nc(OCC)n1 | i | -1.78
Cc1c(C(=O)NCC2CCCO2)oc2ccc(Br)cc12 (configuration not stated) | i | -1.26
O=C1N=C(C=c2ccc(=Cc3[nH]c(=O)[nH]c3O)cc2)C(=O)N1 | i | 1.72
Cc1ccc(-c2cc3ncc(C#N)c(N)n3n2)cc1 | i | 2.31
O=[N+]([O-])c1c(C(Cl)Cl)nn(-c2ccccc2)c1N1CCCC1 | i | 0.51
COc1cccc(CNC(=O)C(=O)NCCc2ccc(OC)c(OC)c2)c1 | i | 1.44
Cc1ccccc1C(=O)/C=C1/SCC(=O)N1C | i | -0.01
CC1(c2ccccc2)NC(=O)N(CC(=O)Nc2ccc(Cl)c(S(=O)(=O)N3CCCCC3)c2)C1=O (configuration not stated) | i | 0.48
Cn1c(=O)oc2cc(S(=O)(=O)N3CCC(C(=O)NCc4ccccc4Cl)CC3)ccc21 | i | 0.81
CCNC(=O)Cc1c(OC)ccc2cc(Br)ccc12 | i | 0.04
O=C(CNC(=O)c1ccccc1F)OCc1nc2ccccc2s1 | i | 0.28
CCCCCCCCCCOC(=O)C[N+](C)(C)C/C=C(/C)Cl | i | -0.45
COc1cc(C(=O)NCC(=O)OCc2ccccc2Cl)cc(OC)c1OC | i | -0.52
Cc1cc(=O)oc2cc(NC(=O)C3CC(=O)N(Cc4ccccc4)C3)ccc12 (configuration not stated) | i | -0.96
O=C(CSc1ncccn1)Nc1ccc(N2CCOCC2)cc1 | i | 0.34
COc1ccc(C2NC3=C(CCC3)C3(C#N)C4(N=C(N)C23C#N)OCCO4)cc1 (configuration not stated) | i | 0.03
Cn1cc(CN2CCC(CO)CC2)c(-c2ccc(Oc3ccccc3)cc2)n1 | i | -0.35
CC(C)(C)c1ccccc1OCCOCCN1CCCCCC1 | i | -1.45
CC(=O)Nc1ccc(OC(=O)c2cc([N+](=O)[O-])ccc2Cl)cc1 | i | -0.85
Cc1ccc(NC(=S)N/N=C2\CC(C)(C)Oc3ccc(O)cc32)cc1 | i | 0.01
N#Cc1ccccc1CSc1ncccc1C(=O)O | i | 1.24
COc1ccc(-c2cnc(SCC(=O)Nc3cc(C)on3)n2Cc2ccco2)cc1 | i | 1.3
COc1cc(NC(=S)NC(C)=O)ccc1NC(=O)C(C)C | i | 0.12
COc1cc([N+](=O)[O-])ccc1NC(=O)/C=C/C(=O)O | i | -1.05
C1CCN(c2nc(N3CCCCC3)nc(N3CCNCC3)n2)CC1 | i | 1.44
O=C(O)Cn1c(SC2CCCCC2)nc2ccccc21 | i | 2.43
Cc1cc2occ(CC(=O)N(C)CC(=O)Nc3ccccc3Cl)c2cc1C | i | -0.45
O=C(c1ccccc1OCc1ccc(Cl)cc1)N1CCN(c2ccccn2)CC1 | i | 0.04
COc1ccc(N2C(=O)c3ccccc3NC2c2ccc(OC)c(CSc3ccccn3)c2)cc1 (configuration not stated) | i | 4.36
Cc1ccc(S(=O)(=O)Nc2nc3ccccc3nc2N2CCN(c3ccccc3F)CC2)cc1 | i | -1.04
COCCn1c(COc2ccc(OC)cc2)nc2ccccc21 | i | 0.13

Going on with the list:
SMILES | KCNQ2 inh | KCNQ2 inh baseline
COC(=O)[C@H](Cc1c[nH]c2ccccc12)NC(=O)CCCc1c[nH]c2ccccc12 | i | -0.6
O=C(O)CCC(=O)N1CCN(c2ncccn2)CC1 | i | 1.94
Cc1nc(C(=O)Nc2ccccc2)sc1C1(C)CC(c2cccnc2)=NO1 (configuration not stated) | i | 0.67
Nc1cccc(C(=O)NCCNC(=O)c2cccc(N)c2)c1 | i | 1.1
CCOC(=O)C(CC)(CC)C(=O)/C=C/c1cccc(Br)c1 | i | -0.04
CCN(c1ccccc1)S(=O)(=O)c1ccc(Cl)c(NC(=O)CSc2nncs2)c1 | i | 3.42
O=c1oc2ccccc2cc1-c1nc(-c2cccs2)cs1 | i | 1.56
O=C(O)c1cc(-c2ccc(Cl)cc2)n(-c2ccccc2)n1 | i | -0.86
Cc1ccc(C2N(c3ccc(F)cc3)C(=O)C3CCCN32)cc1 (configuration not stated) | i | 1.06
CCC(=O)Nc1cccc(NC(C)=O)c1 | i | -0.07
Cc1sc2nc(COC(=O)c3cccc(S(=O)(=O)N(C)c4ccccc4)c3)[nH]c(=O)c2c1C | i | 0.36
CCOC(=O)N1CCC(N(CCN(C)C)C(=S)Nc2ccc(F)c(Cl)c2)CC1 | i | -0.69
O=C(Cc1ccccc1)NNC(=O)C1CCCC1 | i | 0.69
CC(C)(C)C(=O)NC1CCN(S(=O)(=O)c2ccc(C(F)(F)F)cc2)CC1 | i | -0.85
Cc1cc(Cl)ccc1NC(=O)CN1CCC(C(O)(c2ccccc2)c2ccccc2)CC1 | i | 0.99
CC(=O)CCc1c(C)[nH]c2ccc(NC(C)=O)cc2c1=O | i | 0.09
COc1ccc(N(CC(=O)NCCOc2ccccc2)S(=O)(=O)c2ccc(C)cc2)cc1 | i | -0.06
COc1cccc(-n2c(C)c3c(OC)cccc(=O)c3c2C)c1 | i | 1.2
CN(c1nc2ccccc2nc1Cl)S(=O)(=O)c1ccccc1 | i | 0.45
CCN(CC)C(=O)Oc1ccccc1NC(C)=O | i | 1.77
Cc1ccc(S(=O)(=O)Cn2cnnn2)cc1 | i | -0.08
Nc1cccc(C(=O)Nc2ccc(N)cc2Cl)c1 | i | 1
COc1ccc(NC(=O)CCN2CCN(c3ccc(F)cc3)CC2)cc1 | i | 8.94
Cn1c(SCC(=O)N2CCN(c3ccccc3)CC2)nnc1-c1ccncc1 | i | -0.49
CCN(CC)c1ccc(S(=O)(=O)N2CCCCC2)cc1NC(=O)C1CCC1 | i | 0.69

6 compounds from above, arranged by number of heavy atoms, falling:
SMILES | KCNQ2 inh | KCNQ2 inh baseline
CCN(CC)c1ccc(S(=O)(=O)N2CCCCC2)cc1NC(=O)C1CCC1 | i | 0.69
CC(C)(C)C(=O)NC1CCN(S(=O)(=O)c2ccc(C(F)(F)F)cc2)CC1 | i | -0.85
Cc1ccc(C2N(c3ccc(F)cc3)C(=O)C3CCCN32)cc1 (configuration not stated) | i | 1.06
Nc1cccc(C(=O)NCCNC(=O)c2cccc(N)c2)c1 | i | 1.1
CC(=O)CCc1c(C)[nH]c2ccc(NC(C)=O)cc2c1=O | i | 0.09
CCN(CC)C(=O)Oc1ccccc1NC(C)=O | i | 1.77

Later entries.
SMILES | KCNQ2 inh | KCNQ2 inh baseline
CC(C)NC(=O)C12CC3CC(C1)CC(n1cnc(Cl)n1)(C3)C2 | i | 1.97
CC1CCCN(C2(O)C(=O)Nc3ccc(Br)cc32)C1 (configuration not stated) | i | -0.74
Cc1cccc(C)c1NC(=O)c1c(-c2ccccc2)noc1C | -5.7* | -1.11*
COc1ccc(CCN(C)C(=O)C2CCCN(Cc3ccc(OC)c(OC)c3)C2)cc1OC (configuration not stated) | i | 1.67&0.46
O=C(Nc1cccc(C(=O)N2CCOCC2)c1)c1cncc(Br)c1 | i | -0.85
CC(=O)Nc1ccc(S(=O)(=O)N2CCC(C(=O)c3ccc(Cl)cc3)CC2)cc1 | i | 1.78
O=S(=O)(c1ccc(OCC(O)CN2CCCC2)cc1)N1CCOCC1 (configuration not stated) | i | -0.62
O=C(OCc1ccco1)c1ccc(S(=O)(=O)N2CCCCC2)cc1 | i | -1.14
CCOCCOC(NC(=O)c1ccccc1)(C(F)(F)F)C(F)(F)F | i | 0.12
Cc1ccc(C)n1-n1c(C)nc2sc(-c3ccccc3)cc2c1=O | i | 0.36
CCN=C1SC(CC(N)=O)C(=O)N1CC (configuration not stated) | i | -0.79
O=C(CCC(=O)OCc1cccc(C(=O)Oc2ccccc2)c1)Nc1cccc2ccccc12 | i | 1.21
CN(C)c1ccc(N=Nc2ccccc2C(=O)OCC(=O)NC2CCCC2)cc1 | i | 0.21
O=[N+]([O-])c1ccc(S(=O)(=O)NCC2CCCO2)cc1 (configuration not stated) | i | -0.01
COc1ccc(CCN(Cc2cc3cccc(C)c3[nH]c2=O)C(=O)NC2CCCCC2)cc1OC | i | -0.41
CC/C(C)=N/Nc1nc2c(c(=O)[nH]c(=O)n2C)n1Cc1ccccc1 | i | 1.29
Cc1cc(S(=O)(=O)NCc2ccccc2)ccc1OCC(=O)NCc1cccnc1 | i | -0.07
O=C(O)c1cccc(NC(=S)N/N=C/c2ccccc2OCc2cccc(Br)c2)c1 | i | -0.3
Cc1ccc(C(=O)C[n+]2cc(-c3ccc(C)cc3)n3c2CCCCC3)cc1 | i | 0.8
CCC1(C)Cc2ccccc2-c2nc(NCCCO)n(C)c(=O)c21 (configuration not stated) | i | 0.01
O=C(O)CSc1ccccn1 | i | 0.02
OCC1CCN(Cc2cn(Cc3ccccc3)nc2-c2cc3ccccc3o2)CC1 | i | 0.02
CC(=O)Nc1ccc(NC(=O)c2c([N+](=O)[O-])cnn2C)cc1 | i | 0.24
COC(=O)[C@@H](NC(=O)N(C1CCCCC1)C1CCCCC1)C(C)C | i | -0.07
NS(=O)(=O)c1ccc(CNC(=O)c2cc(=O)c3ccccc3o2)cc1 | i | -2.27
COc1cc(/C=C(\C#N)C(=O)NCc2cccs2)ccc1O | i | 1.69
CC1CCN(c2ccc(S(=O)(=O)N3CCC(C)CC3)cc2N)CC1 | i | 0.63
Cc1ccc(C(=O)NCCCn2ccnc2)o1 | i | 0.77
Cc1cccc(N2C(=O)CC(SC(=Nc3ccccc3)Nc3ccccc3)C2=O)c1 (configuration not stated) | i | 1.38
CCN(CCO)c1ccc(NC(=S)Nc2cccc(S(=O)(=O)N(C)C)c2)cc1 | -6.73* | 1.92*
CS(=O)(=O)Nc1cccc(-c2cn3ccccc3n2)c1 | i | -0.76
O=C1CSC(=S)N1c1ccc(F)c(Cl)c1 | i | 0.2
CC(=O)NCc1ccc(C(=O)O)cc1 | i | -0.12
Cc1cc(C)c(S(=O)(=O)NCC(c2ccco2)N2CCc3ccccc3C2)c(C)c1 (configuration not stated) | i | 0.03
O=C(/C=C/c1ccco1)N1CCC(Cc2ccccc2)CC1 | i | 0.43
CCOc1ccc(NC(=O)CN(C)C(=O)c2ccc(C3SCCS3)cc2)cc1OCC | i | -2.02
C#CCN1C(=O)S/C(=C\c2cc3c(cc2OC)OCO3)C1=O | i | 0.19
CCSc1nc2ccccc2c(=O)n1Cc1ccc(F)cc1 | i | 1.61
CN(C)c1ccnc(Nc2ccc(O)cc2)c1C#N | i | -0.69
O=C(CCCOc1ccccc1)NC1CCCc2ccccc21 (configuration not stated) | i | -0.41
Cc1ccc(C(=O)N[C@H](C(=O)OCc2cc(=O)oc3cc(C)ccc23)C(C)C)cc1 | i | 0.44
Cc1cc(C)c(S(=O)(=O)c2ccccc2)c(OC(=O)c2c(F)cccc2Cl)n1 | i | 0.09
CCOCC(=O)Nc1cc(C)on1 | i | 0.7
CCOC(=O)C1CCN(C(=O)CN(c2cc(Cl)ccc2OC)S(=O)(=O)c2ccccc2)CC1 | i | 1.97
CCCNS(=O)(=O)c1cccc2cccnc12 | i | 0.3
O=[N+]([O-])c1cc2c(c(CSc3nnc(Nc4ccccc4)s3)c1)OCOC2 | i | 0.74
Nc1ccc(Oc2cccc(Oc3ccc(N)cc3)c2)cc1 | i | 1.68
COc1ccc(/C=N/NC(=O)c2cc(-c3cccnc3)nc3ccccc23)c(OC)c1 | i | 0.75
O=S(=O)(Nc1ccccc1Cl)c1cccc2nsnc12 | i | -0.59
Cc1cccc(CNC(=O)c2ccc(NC(=O)C3=CSCCO3)cc2)c1 | i | -1.15

Assay outcomes: PubChem, Johns Hopkins Ion Channel Center
